Compound activity: PubChem, National Center for Advancing Translational Sciences (NCATS)
Cruzain inh Det: cruzain (T. cruzi) inhibition with detergent | P25779 | purified cruzain, Z-FR-AMC fluorescence, 0.01% Triton | Potency, µM, without a hit: max response, negative = inhibition, hits mostly inhibitors | actives 0.43% (n = 200,000) | AID 1478;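 note: plate controls were neutral wells for no effect and buffer without enzyme for full effect; nearly all actives have a fitted effect of over 40% in size; top concentration of the series not given in the record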
Target sequence (P25779 123-467 limits assumed): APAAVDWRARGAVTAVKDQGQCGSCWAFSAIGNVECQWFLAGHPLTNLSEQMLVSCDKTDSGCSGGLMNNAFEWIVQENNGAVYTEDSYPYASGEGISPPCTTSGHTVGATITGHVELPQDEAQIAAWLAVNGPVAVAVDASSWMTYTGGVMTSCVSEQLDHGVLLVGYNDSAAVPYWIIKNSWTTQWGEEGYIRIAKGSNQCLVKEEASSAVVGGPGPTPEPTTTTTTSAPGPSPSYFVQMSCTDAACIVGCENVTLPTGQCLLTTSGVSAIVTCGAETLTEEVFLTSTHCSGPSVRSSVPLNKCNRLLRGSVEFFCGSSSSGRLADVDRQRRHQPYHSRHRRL
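Enzyme 1.5 nM, Z-FR-AMC 2 uM, NaOAc 100 mM pH 5.5, DTT 5 mM, Triton X-100 0.01%; 15 min RT compound preincubation; kinetic ex360/em450, 60 s delta.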
Cruzain noTriton: inhibitors of Trypanosoma cruzi cruzain without detergent; P25779; purified cruzain, Z-FR-AMC fluorescence, no detergent; Potency, µM, for inactives: max response, negative = inhibition, usual class: inhibitors; actives 2.3% (n = 200,000); AID 1476;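 note: plate controls were enzyme without inhibitor for no effect and buffer without enzyme for full effect; nearly all actives have a fitted effect of over 40% in size; top concentration of the series not given in the record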
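Purified cruzain at 1.5 nM, pre-incubated 15 min with compound at room temperature in 100 mM sodium acetate pH 5.5, 5 mM DTT, 0.00005% Triton X-100. Reaction started with 2 uM Z-FR-AMC; AMC fluorescence increase over 60 s gives rate.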
NS1 inh: influenza NS1 inhibition | actives 0.4% (n = 270,000) | Potency, µM (highest dose often 46.1 µM), inactives show top-dose activity, positive = more growth | S. cerevisiae slowed by influenza A NS1, growth recovery by OD600; active means well fitted rising curve with a large enough effect; inconclusive means small, poorly fitted or top-dose-only effect; inactive means no such curve, though single readings can be large or run the other way; note: nearly all actives have a fitted effect of over 50% in size
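Recovery from NS1-induced slow growth read by OD600 in budding yeast switched to galactose assay medium (pH 6.0, -URA) at 1:100 dilution. Compound 23 nl per well; the matching strain lacking NS1 serves as control.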
An asterisk follows results filed as active; ? = inconclusive; . = no result given; & = joins results of further samples. Unless noted, calls come from the whole dose curve; as a rule, active = well fitted curve in the direction sought with a large enough effect; inconclusive = small, poorly fitted or top-dose-only effect, or another doubt; inactive = no such curve, though single readings can be large; an effect the other way counts as inactive or inconclusive. Potency is the fitted concentration of half-maximal effect. Only part of the results is shown (hit frequency here may not be typical).

smiles,Cruzain inh Det,Cruzain noTriton,NS1 inh
NNc1nnc(NN)c2ccccc12,0.6%,0.6%,.
Cc1c(-c2ccccc2)oc2c(C(=O)OCCN3CCCCC3)cccc2c1=O,-1.9%,-5.4%,.
CNC(=O)c1ccccc1,1.8%,7.8%,.
COC(=O)[C@@]1(Cc2ccc(F)cc2)[C@@H]2C(=CC(=O)[C@H]2CC(=O)C(=O)N2CCCC2)CN1C(=O)c1ccccc1,0.1%,?,.
C=CCC(C)(O)c1cccc(C(F)(F)F)c1 (stereo not drawn),5.0%,6.2%,.
C=CC(=O)OCC(CO)(COC(=O)C=C)COC(=O)C=C,5.7%,22.9%,.
COc1ccc2c(c1)O[C@H](c1ccc3c(c1)OCO3)[C@@H](OC(=O)NS(=O)(=O)c1ccc(F)cc1)C2=O,0.3%,15.1%,.
Nc1cccc2ccccc12,1.7%,-9.8%,.
C[C@H]1C[C@]2(O[C@@H]2C)C(=O)O[C@@H]2CCN(C)C/C=C(/COC(=O)[C@]1(C)O)C2=O,0.3%,1.9%,.
COc1ccc2c(c1)C(c1ccc3c(c1)OCO3)CC(=O)O2 (stereo not drawn),-4.4%,-20.5%,.
C[C@@]12CC[C@H](O)C[C@@H]1CC[C@H]1[C@H]2CC[C@@]2(C)[C@@H](C3=CC(=O)OC3)CC[C@]12O,1.4%,-0.5%,.
CC[C@H](C)[C@@H](NC(=O)O[C@@H]1Cc2cc(Br)ccc2O[C@H]1c1cccc(OC)c1)C(=O)OC,-2.3%,1.8%,.
CCOc1ccc2nc(N)sc2c1,2.8%,-3.3%,.
CCCCCc1cc(O)cc(O)c1,-11.3%,5.1%,.
C[C@@H]1[C@H]2CC[C@@H]3[C@@H]4CC=C5C[C@@H](N(C)C)CC[C@]5(C)[C@@H]4CC[C@@]32CN1C,0.4%,20.0%,.
CCCCC/C=C\C/C=C\C/C=C\C/C=C\CCCC(=O)OCCN,-2.8%,20.4%,.
COc1ccc(-c2oc3cc(OC)ccc3c(=O)c2O)cc1,-2.3%,-5.0%,.
CC(C)=CCC/C(C)=C/C=O,6.0%,-0.2%,.
OCC(CO)(CBr)CBr,1.1%,-1.3%,.
CC[C@H](c1ccccc1)c1cc(C(C)(C)C)cc(C(C)(C)C)c1O,2.4%,-10.7%,-6.9%
COC(=O)c1cc(=O)[nH]c(=O)[nH]1,4.2%,2.4%,2.8%
CN(C)Cc1cc(O)c(O)c(CN(C)C)c1,3.1%,-4.0%,1.1%
Nc1nc(SCC(=O)c2ccc(Br)cc2)c2[nH]cnc2n1,-3.5%,-9.2%,-2.2%
CSc1ncnc2c1ncn2[C@@H]1O[C@@H](CO)[C@H](O)O[C@@H]1O,-2.1%,0.0%,5.6%
CC(=O)O[C@H]1CC[C@@]2(C)C(=CC[C@@H]3[C@H]4CC[C@@H]([C@H](C)C(=O)O)[C@]4(C)CC[C@H]32)C1,2.2%,-3.7%,-15.0%
CC(C)[C@]1(Cl)CC[C@@H]2[C@]3(C)CCC[C@@](C)(C(=O)O)[C@H]3C[C@H](Cl)[C@@]2(Cl)[C@H]1Cl,-3.3%,-19.2%,-3.1%
NCCNc1ncnc2ccc(Cl)cc12,-2.2%,0.4%,-2.8%
O=C1c2ccccc2-c2ccc(NC(=O)[C@H]3CCCC[C@@H]3C(=O)O)cc21,4.6%,-3.0%,-6.6%
c1ccc(B2OC[C@@H]3OB(c4ccccc4)O[C@H]([C@@H]4COB(c5ccccc5)O4)[C@@H]3O2)cc1,0.0%,-2.0%,5.1%
CC(C)=C[C@H]1[C@@H](C(=O)Oc2ccccc2C(C)C)C1(C)C,3.2%,-4.6%,0.0%
COc1ccc(/C=C(\C#N)C(N)=O)cc1OC,5.8%,3.7%,0.0%
CN(C)Cc1nsc(N(C)C)n1,4.1%,8.9%,-0.7%
O=[As](O)(O)c1ccc(N=Nc2ccc([As](=O)(O)O)cc2)cc1,-1.7%,2.4%,0.0%
CC1(C)CC(=O)C(C(c2cccc(O)c2O)C2C(=O)CC(C)(C)CC2=O)C(=O)C1,3.2%,-7.5%,13.4%
C/C(CC/C(C)=N/O)=N/O,5.7%,-1.9%,-2.7%
NS(=O)(=O)c1ccc(N=Nc2ncccc2O)cc1,0.6%,1.6%,8.3%
Nc1ccccc1N=Nc1c(S(=O)(=O)O)cc2cc(S(=O)(=O)O)cc(O)c2c1O,2.7%,-0.8%,-7.6%
C[N+]1(C)CCO[C@](O)(c2ccccc2)C1,6.5%,3.4%,-7.2%
COC(=O)c1c(C)ccc2c(O)c3c(cc12)C(=O)c1c2c(cc(O)c1C3=O)[C@@]1(C)O[C@@](C)(O2)[C@@H](O)[C@H](N(C)C)[C@H]1O,4.3%,2.5%,?
OC[C@@H](O)CNc1ncnc2ccccc12,1.1%,2.1%,-6.9%
O=C(O)/C(=C\c1ccc(O)cc1)c1cccc2ccccc12,0.7%,-4.7%,-9.0%
CC(C)(CO[C@H]1C[C@H]2CC[C@@]1(C)C2(C)C)[N+](=O)[O-],-0.8%,3.5%,2.8%
O=C(O)[C@@H](O)[C@@H](O)[C@H](O)[C@H](O)CO,1.3%,15.4%,11.8%
Cc1cc(Cc2cc(C)cc(C(C)(C)C)c2O)c(O)c(Cc2cc(C)cc(C(C)(C)C)c2O)c1,1.5%,?,-0.3%
CC1(C)COCN1COC1CCCCC1,-2.6%,4.8%,-3.5%
C[C@@]12CC[C@H](O[C@@H]3O[C@H](CO)[C@@H](O)[C@H](O)[C@@H]3O)C[C@@H]1CC[C@H]1[C@H]2CC[C@@]2(C)[C@@H](C3=CCOC3=O)CC[C@]12O,-3.9%,-7.3%,7.7%
FC(F)(F)c1nc2ccc(SSc3ccc4nc(C(F)(F)F)[nH]c4c3)cc2[nH]1,-2.1%,-5.1%,-15.4%
CC(C)(C)c1c2c(c(C(C)(C)C)c3c1OCN(Cc1ccccc1)C3)OCN(Cc1ccccc1)C2,3.1%,3.5%,-10.6%
Nc1nc2c(ncn2[C@H]2CC[C@@H](CO)O2)c(=O)n1C(=O)c1ccccc1,0.9%,5.4%,-6.3%
CSCC[C@@H](N)P(C)(=O)O,5.9%,3.6%,0.7%
Clc1ccc(CSC2=NCCN2)cc1Cl,1.2%,-4.4%,0.0%
C=C(C)CNCCN,4.4%,-8.3%,-2.0%
CN1CCN(CCCN)CC1,2.3%,-1.4%,0.0%
C[C@@]12CC[C@H]3[C@@H](CC[C@H]4C[C@@H](O)CC[C@]43C)[C@H]1CC[C@@H]2C(=O)C[C@H](O)C(F)(F)F,-7.0%,-1.5%,-10.5%
CC(C)CNc1nc(N)[nH]c(=O)c1NC=O,2.0%,6.9%,-1.0%
NNC(=O)c1ccc(OCc2nc3ccccc3[nH]2)cc1,4.0%,-3.8%,?

Going on with the list.
smiles,Cruzain inh Det,Cruzain noTriton,NS1 inh
Cc1ccnc(NS(=O)(=O)c2ccc(N=[N+]=[N-])cc2)n1,-0.6%,-2.8%,-8.7%
c1ccc2c(c1)nnn2CN1CCOCC1,-0.7%,8.0%,0.0%
O=C(O)/C(=C\c1ccccc1)Cc1ccccc1,5.5%,-0.1%,0.0%
O=C(O)CN(CC(=O)O)c1ccccc1,0.6%,-5.9%,1.8%
Cc1cc(C(C)(C)C)c(OCCCN2CCOCC2)c(C(C)(C)C)c1,1.7%,5.3%,-15.8%
O[C@@H](c1cc(-c2ccc(Cl)cc2)nc2ccccc12)C1CCCCN1 (stereo partly drawn),3.1%,-8.5%,-10.1%
NS(=O)(=O)c1ccc(N=Nc2ccc[nH]c2=O)cc1,2.0%,1.5%,16.7%
ClC(Cl)(Cl)C(N1CCN(c2ccccc2)CC1)N1CCN(c2ccccc2)CC1,-0.8%,-5.9%,-0.5%
O=C(O)c1ccccc1CN1CCC[C@@H](C(=O)O)C1,4.8%,-1.1%,10.9%
Cc1[nH]c(N)nc(=S)c1CCC(=O)O,-1.1%,2.0%,0.0%
C=C1CCO[C@@]2([C@H](O)[C@@](C)(O)CO)NC(=O)[C@]1(O)NC2=O,5.1%,6.5%,-0.7%
CC(=O)Nc1cc(CN2CCCCC2)c(O)c2ncccc12,-0.3%,1.4%,5.6%
CCc1ccc(CCN2CCCCC2)nc1,2.1%,6.7%,1.0%
O=C(O)C1CC2(C1)CC(C(=O)O)C2 (stereo not drawn),-0.3%,3.6%,-2.8%
CCCOC(=O)[C@@H]1[C@@H](C(=O)O)[C@H]2CC[C@@H]1O2,0.0%,6.5%,-1.0%
O=C(O)[C@@H]1CCCN1Cc1cc2ccccc2c2ccccc12,2.8%,4.1%,2.8%
CC(=O)OCC(=O)[C@]12OC(C)(C)O[C@@H]1C[C@H]1[C@H]3CC=C4C[C@@H](O)CC[C@]4(C)[C@H]3CC[C@]12C,1.5%,-2.6%,-12.6%
N=C(N)SCCc1ccccn1,3.2%&6.7%,-5.1%&6.3%,-0.1%&-2.8%
NCCSCc1ccccc1Cl,-1.9%,-13.8%,-2.8%
CN1CCCC[C@@H]1CCN1CCCCC1,-0.7%,-8.3%,-1.4%
O=C(O)[C@@H]1[C@@H]2C[C@@H]3[C@@H](OC(=O)[C@@H]31)[C@H]2Br,-5.3%,1.9%,0.0%
NC1=N[C@H](c2ccc(Cl)cc2)N(c2ccc(S(N)(=O)=O)cc2)C(N)=N1,-1.9%,1.9%,-5.3%
OCCCSCCO,0.5%,10.9%,0.7%
c1ccc(-c2ccc(-c3ccc(C4=NCCN4)cc3)o2)cc1,-0.9%,-1.8%,-20.1%
Cc1ccc(S(=O)(=O)OC2CCN(C)CC2)cc1,-2.1%,4.7%,-8.2%
C/C(=N/Nc1ccc2ccccc2n1)c1ccccc1O,-2.3%,-9.9%,-9.0%
COc1ccc(C[C@@H](N)c2ccc(OC)cc2)cc1,-1.3%,-4.4%,-6.2%
CN(C)CCCCN1CCc2c(n(C)c3ccccc23)C1=O,-0.2%,5.1%,-2.0%
C/C(=N\[N+](C)(C)C)c1ccc(C)c(C)c1,4.7%,-6.8%,2.8%
C/C(=N/Nc1nc(C)cc(=O)[nH]1)C(=O)O,3.1%,8.9%,0.0%
CC(=O)[C@H]1CC[C@@H]2[C@]1(C)CC=C1[C@@]23C=C[C@]2(C[C@H](O)CC[C@@]12C)[C@H](C(=O)O)[C@@H]3C(=O)O,-3.3%,-3.1%,-3.2%
O=C1c2ccccc2C(=O)c2c(Nc3cc4c5c(ccc6c7ccc8c9c(cc(Nc%10cccc%11c%10C(=O)c%10ccccc%10C%11=O)c(c3c56)c97)-c3ccccc3C8=O)C(=O)c3ccccc3-4)cccc21,-3.5%,6.2%,-2.6%
CN1CCN(CCCBr)CC1,-5.9%,9.5%,1.8%
NS(=O)(=O)c1ccc(NC(=O)Nc2ccccc2F)cc1,3.7%,1.0%,-0.3%
O=C(O)/C=C\C(=O)Nc1cccc2c1-c1ccccc1C2=O,1.2%,1.2%,6.2%
O=C1c2ccccc2C(=O)N1C[C@]1(C(=O)O)NCCS1(=O)=O,4.1%,-7.3%,2.4%
[ClH+][Cu][ClH+].[Cu].[OH2+]c1ccc2ccccc2c1CN1CCCCC1.[OH2+]c1ccc2ccccc2c1CN1CCCCC1,1.4%,-5.0%,0.0%
CN(C)CCCNc1c2c(nc3ccc(Cl)cc13)CCCC2,2.5%,3.8%,0.0%
Cc1ccc(S(=O)(=O)OCC(=O)O)cc1,3.0%,-1.0%,0.0%
Cc1[nH]n(-c2ccc(S(=O)(=O)O)cc2)c(=O)c1N=Nc1ccccc1,-4.2%,-1.4%,-2.6%
O=C(O)CCNc1ccccc1C(=O)O,-3.5%,-6.9%,-1.7%

As entered above:
For NS1 inh, Cc1ccc(S(=O)(=O)OCC(=O)O)cc1 is listed with 0.0%
For Cruzain inh Det, O=C(O)CCNc1ccccc1C(=O)O is listed with -3.5%
